HPGD block: inhibitors of human 15-hydroxyprostaglandin dehydrogenase (HPGD) | P15428 | purified HPGD, NADH fluorescence kinetic, PGE2 substrate | Potency, µM, without a hit: at the top dose activity change, negative = inhibition, actives largely listed as inhibitors | hit rate 4.3% among 150,000 | AID 894; active = well fitted inhibition curve with a large enough effect (not every such curve was filed as active); inconclusive = small, poorly fitted or top-dose-only effect, or another doubt; inactive = no such curve, though single readings can be large or run the other way;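 note: top concentration of the series not given in the record; plate controls included wells without enzyme; inactives centre near -10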
Target sequence (P15428 whole entry, looked up): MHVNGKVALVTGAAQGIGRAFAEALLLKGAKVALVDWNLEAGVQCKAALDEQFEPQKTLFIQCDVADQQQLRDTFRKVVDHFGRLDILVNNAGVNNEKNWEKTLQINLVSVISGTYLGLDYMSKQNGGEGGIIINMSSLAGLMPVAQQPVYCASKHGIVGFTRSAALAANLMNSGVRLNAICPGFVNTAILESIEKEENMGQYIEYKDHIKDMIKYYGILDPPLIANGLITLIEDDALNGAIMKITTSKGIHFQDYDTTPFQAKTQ
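NADH formation kinetics: reaction with 30 uM PGE2 and 1 mM NAD+ (final), 20 nM enzyme, Tris-HCl pH 8 with Tween 20, after 15 min compound preincubation at room temperature. Fluorescence change, last versus first of five reads.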
The depositor's hits bear a star; ? = inconclusive; & = joins results of further samples. % is set by controls: 0 for no effect and ±100 for the full control effect; potency is the fitted concentration of half-maximal effect.

SMILES	HPGD block
CCOc1c(Cl)cc(Cl)cc1CNCCNCCO	3.1%
CCOC(=O)N1CCN(C(=O)c2ccc(NC(=O)CC)cc2)CC1	?
Nc1nc(Cl)nc(N(c2ccccc2)c2ccccc2)n1	-8.9%
O=C(Nc1ccccc1C(=O)NCC1CCCO1)c1ccco1 (stereo unspecified)	-6.9%
Cc1cc[n+](-c2nc3ccccc3nc2[N-]S(=O)(=O)c2cccs2)cc1C	-6.3%
O=C(N/N=C/c1ccco1)c1cc(-c2ccc3ccccc3c2)n[nH]1	-15.9%
CC1=C(C(=O)OC(C)C)C(c2cccc(F)c2)N2C(=O)C(C)SC2=N1 (stereo unspecified)	-2.6%
O=C(Nc1ccc(Br)cn1)C1CCCN1S(=O)(=O)c1ccccc1 (stereo unspecified)	-4.9%
CCOC(=O)N1CCC(NC(=O)c2ccc3nc4ccccc4c(=O)n3c2)CC1	?
CC(=O)Oc1ccc(C(=O)Cc2ccc3ccccc3n2)c(O)c1C	-2.9%
Cc1ccc(B(O)O)cc1	-7.2%
COc1ccc(-n2cnnc2SCc2cnc(-c3ccccc3)s2)cc1	-8.0%
CN1CCN(S(=O)(=O)c2ccc(NC(=S)NC(=O)C3CCC3)cc2)CC1	-1.8%
CCOc1ccc(NC(=O)CN2CCN(CC(=O)Nc3ccc(F)cc3)CC2)cc1	-1.1%
C/C(N)=C(/C#N)C(=O)COC(=O)CCSc1ccccc1Cl	-35.7%
COc1ccc(Oc2ncc3nc(-c4cc(F)cc(F)c4)c(=O)n(CCC#N)c3n2)cc1	?
CC(=O)c1c(C)[nH]c(C(=O)COc2cc(C)ccc2C(C)C)c1C	-4.8%
CCOC(=O)N1N=C(C)CC1(O)c1ccccc1 (stereo unspecified)	3.9%
CCn1c(=O)n(CC)c2cc(S(=O)(=O)NCCOc3ccccc3)c(C)cc21	-0.6%
CCOC(=O)N1CCN(CCC(=O)Nc2ccc(OC)cc2)CC1	-13.1%
Cc1ccc(S(=O)(=O)NCCCCC(NC(=O)OC(C)(C)C)C(=O)O)cc1 (stereo unspecified) (tested in a mixture with another compound)	-9.8%
O=C(COc1nnnc2ccccc12)N1CCCc2ccccc21	4.1%
COc1ccc(C2(O)CCN(C(=O)c3c(F)cccc3F)CC2)cc1	-5.5%
O=Nc1ccc(Nc2ccccc2)cc1	-13.9%
Cc1ccc(/C=C(\CCC(=O)O)c2nc3ccccc3s2)cc1[N+](=O)[O-]	-8.4%
CON	-4.6%
Cc1cc(N2C(=O)CC(Cc3ccc(Cl)cc3)C2=O)no1 (stereo unspecified)	-4.0%
O=C(Nc1ccccc1)N1CCCC(c2nc(-c3ccc(F)cc3)no2)C1 (stereo unspecified)	0.0%
COC(=O)c1sc2ccccc2c1NC(=O)c1ccc(S(=O)(=O)N2CCCC(C)C2)cc1 (stereo unspecified)	-23.6%
Cc1cc(N/N=C/c2ccc(Cl)cc2)nc(NCc2ccccc2)n1	-10.2%

Next part.
SMILES	HPGD block
O=C(Cn1nnc2ccccc21)c1ccccc1	-11.3%
O=C(COC(=O)/C=C/c1ccc([N+](=O)[O-])cc1)NC(c1ccccc1)c1ccccc1	-4.4%
Cc1ccc(C)c(N2CCN(C(=O)CCNC(=O)Cn3ccc4ccccc4c3=O)CC2)c1	?
Cc1ccc(C(=O)N/C(=C\c2cn(-c3ccccc3)nc2-c2ccccc2)C(=O)N2CCOCC2)cc1	0.7%
CCC(C)NC(=O)C1CCN(S(=O)(=O)c2cccnc2)CC1 (stereo unspecified)	-11.7%
Fc1cccc2sc(Nc3nnc(-c4ccco4)o3)nc12	?
CCOC(=O)/C(C#N)=C/c1c[nH]c2ccccc12	-21.3%
Cc1ccc(Cn2ccc(NC(=O)c3noc4c3CCCC4)n2)cc1	-4.7%
NC(=O)c1nsc(C(=O)N(CCc2ccccc2)C(C(=O)NC2CCCC2)c2ccco2)c1N (stereo unspecified)	-20.9%
COc1ccc(-c2cc(=O)c3cc(F)ccc3[nH]2)cc1	?
CCc1nnc(SCc2ccc(C(=O)OC)o2)n1N	-11.4%
Cc1nc2ccc(NC(=O)c3cccc(C(F)(F)F)c3)cc2o1	1.3%
Cc1cc2c(cc1Cl)C(c1ccccc1C)CC(=O)O2 (stereo unspecified)	-19.4%
Cc1ccc(C(C)NC(=O)c2ccco2)cc1C (stereo unspecified)	-17.7%
COc1ccc(OCC(=O)OC2CCN(C)CC2)cc1	-15.2%
CC1COC(c2cccn2Cc2ccccc2Cl)=N1 (stereo unspecified)	2.4%
O=C(NCc1cccs1)C(=O)NCC1OCCCN1S(=O)(=O)c1ccccc1 (stereo unspecified)	-4.3%
COCCCn1c(C2CCCCC2)nc2oc3cc(OC)ccc3c(=O)c2c1=O	-20.6%
COc1cccc(C2C(C(N)=O)=C(C)Nc3nc(-c4cccc(Cl)c4)nn32)c1 (stereo unspecified)	-15.0%
Cc1ccc(NC(C)c2cc(Cl)ccc2O)cc1 (stereo unspecified)	?
Cc1ccccc1OCC(=O)OCC(=O)c1ccc(OC(=O)c2ccccc2)cc1	-11.8%
CC1(C)CC(=O)C=C(NCc2ccco2)C1	-8.3%
COc1ccc(NCN2C(=O)CCC2=O)cc1	0.1%
N#Cc1c2c(c(NCCCN3CCOCC3)n3c1nc1ccccc13)CCC2	?
Cc1ccc2c(c1)N(CCC(=O)NCc1ccccn1)C(=O)CO2	-6.4%
CC(=O)Nc1nc2c(ncn2COCCOC(C)=O)c(=O)[nH]1	-4.1%
Cc1ccsc1-c1n[nH]c(=S)n1C1CCCCC1	-28.8%
CCCCOc1ccccc1Cn1c(=O)oc2ccc(C)cc21	-17.4%
Cc1ccc(C2CC(c3ccccc3)=NN2C(=S)Nc2ccccc2)o1 (stereo unspecified)	17.8µM*
COC(=O)c1ccc(C23CC4(C2)[C@H](CN(Cc2ccc(C(F)(F)F)cc2)[C@@H]4c2ccccc2)C3c2ccc(C(F)(F)F)cc2)cc1 (stereo partly specified)	-1.0%

Some of these compounds in order of their number in HPGD block, high to low:
SMILES	HPGD block
CC1COC(c2cccn2Cc2ccccc2Cl)=N1 (stereo unspecified)	2.4%
Cc1nc2ccc(NC(=O)c3cccc(C(F)(F)F)c3)cc2o1	1.3%
COc1ccc(NCN2C(=O)CCC2=O)cc1	0.1%
CC(=O)Nc1nc2c(ncn2COCCOC(C)=O)c(=O)[nH]1	-4.1%
COc1cccc(C2C(C(N)=O)=C(C)Nc3nc(-c4cccc(Cl)c4)nn32)c1 (stereo unspecified)	-15.0%
COc1ccc(OCC(=O)OC2CCN(C)CC2)cc1	-15.2%
Cc1ccc(C(C)NC(=O)c2ccco2)cc1C (stereo unspecified)	-17.7%

Back to the main list, starting 6 compounds before the break.
compound | HPGD block
Cc1ccc2c(c1)N(CCC(=O)NCc1ccccn1)C(=O)CO2 | -6.4%
CC(=O)Nc1nc2c(ncn2COCCOC(C)=O)c(=O)[nH]1 | -4.1%
Cc1ccsc1-c1n[nH]c(=S)n1C1CCCCC1 | -28.8%
CCCCOc1ccccc1Cn1c(=O)oc2ccc(C)cc21 | -17.4%
Cc1ccc(C2CC(c3ccccc3)=NN2C(=S)Nc2ccccc2)o1 (stereo unspecified) | 17.8µM*
COC(=O)c1ccc(C23CC4(C2)[C@H](CN(Cc2ccc(C(F)(F)F)cc2)[C@@H]4c2ccccc2)C3c2ccc(C(F)(F)F)cc2)cc1 (stereo partly specified) | -1.0%
CCOC(=O)c1cc(-c2ccccc2)nc2nc(N3CCCCC3)sc12 | ?
CCOC(=O)N1CCC(NC(=O)c2cc(-c3ccc(F)cc3)[nH]c2C)CC1 | -4.8%
COCCn1nnnc1C(c1ccccn1)N1CCN(c2cc(Cl)ccc2C)CC1 (stereo unspecified) | 3.0%
COc1ccc(C2=NN(CN3C(=O)C(=O)c4ccccc43)C(c3ccc(Br)cc3)C2)cc1 (stereo unspecified) | -6.5%
Cc1ccc(S(=O)(=O)NC2(C(F)(F)F)C(=O)Nc3c2c(=O)n(C)c(=O)n3C)cc1 (stereo unspecified) | -21.7%
CC1(CC(=O)N/N=C/c2ccc(-c3cccc(C(F)(F)F)c3)o2)OCCO1 | -22.9%
COc1ccc(Cc2noc(COc3ccc(Cl)cc3)n2)cc1 | -7.8%
Cc1cc2ccccc2c(=O)n1CC(=O)NCc1ccco1 | ?
COc1ccccc1S(=O)(=O)Cc1ccc(C(=O)NC2CCCCC2)o1 | -7.2%
CCCC(=O)Nc1ncnc2c1ncn2[C@@H]1O[C@@H]2COP(=O)(O)O[C@H]2[C@H]1OC(=O)CCC | -12.8%&-9.7%
COc1ccc(CCNC(=O)c2cc(-c3ccc(C)c(C)c3O)n[nH]2)cc1OC | -28.0%
CCn1cnc2sc(C)c(C)c2c1=O | -0.7%
COC(=O)c1ccccc1NC(=O)C1CC(c2ccc(F)cc2)=NO1 (stereo unspecified) | -18.6%
Cn1c(=O)c2c(nc(SCc3nc(N)nc(N4CCCCC4)n3)n2C)n(C)c1=O | -1.3%
C=C(C)CSc1cc(C)c(C#N)c2nc3ccccc3n12 | ?
COc1ccccc1C(=O)Nc1ccccc1C(=O)N1CCCC1 | -6.6%
N#Cc1cccc(NC(=O)COC(=O)c2cccc(N3C(=O)c4ccccc4C3=O)c2)c1 | -12.3%
O=c1[nH]cnc2c1c(-c1ccccc1)cn2-c1ccc(Br)cc1 | -7.5%
Cc1ccccc1NC(=S)N(C)Cc1cccs1 | -9.8%
COc1ccc2c(c1)OC1=C(C(=O)CCC1)C2C1=C(O)CCCC1=O (stereo unspecified) | -6.2%
Cc1cccc(-n2cccc2)c1C#N | -2.6%
CCCCN(CCCNC(=O)c1ccc2nc(N3CCOCC3)sc2c1)Cc1ccccc1 | -10.6%
Cc1cc(C)cc(NC(=O)CN2CCN(CCN=CC3=C(O)CC(C)(C)CC3=O)CC2)c1 | -13.4%
CCCCCn1c(SCCN2CCOCC2)nc2c1c(=O)[nH]c(=O)n2C | ?
CC(C)OC(=O)CCc1nc2ccccc2[nH]c1=O | ?

(listing goes on)
compound | HPGD block
Cc1onc(-c2ccccc2Cl)c1C(=O)OCN1C(=O)c2ccccc2C1=O | 11.2µM*
COc1ccc(N2CCN(Cc3oc(CO)cc(=O)c3O)CC2)cc1 | -2.9%
CC(C)CN1CC[C@@]2(CCCN(C(=O)c3csnn3)C2)C1 | -6.9%
CCOc1ccccc1COC(=O)c1cccc(-n2cnnn2)c1 | -8.8%
CCCn1c(-c2cccs2)nc2ccccc21 | ?
CCN(CC)C(=O)Nc1ccccc1C | -7.1%
Cc1c(C(=O)NCc2cccs2)oc2ccccc12 | -28.3%
O=C(COc1ccccc1)NCC(c1cccs1)N1CCOCC1 (stereo unspecified) | -3.5%
COc1ccc(NC(=O)C23CC4CC(C2)CC(c2ccccc2)(C4)C3)c(OC)c1 | -6.0%
O=C(CCCCCn1c(=O)[nH]c2ccsc2c1=O)NCc1cccs1 | ?
CC(C)(C)n1nc2c(c1NC(=O)Cc1ccc(F)cc1)CSC2 | 2.1%
C=CCNC(=O)CCCc1ccccc1 | -20.7%
CCc1nc(SCC(=O)N2CCC(Cc3ccccc3)CC2)c2c(=O)n(C)c(=O)n(C)c2n1 | -9.8%
COc1ccc(N2C(=O)C3CCCN3C2c2ccc(C)cc2)cc1 (stereo unspecified) | 0.4%
O=c1c(-c2ccc(Cl)cc2)[n+]([O-])c2ccccc2n1O | -13.6%
Cc1cc(NC(=O)CSc2ncnc3sc4c(c23)CCC(C)C4)no1 (stereo unspecified) | -11.3%
Cc1cc(NC(=O)C2CCCCC2)n(-c2nc3ccccc3[nH]2)n1 | -4.4%
COc1cccc(O)c1O | 15.8µM*
CCSc1nnc(NC(=O)c2cc(C)oc2C)s1 | -8.5%
Cc1nn(Cc2c(F)cccc2Cl)c(C)c1NC(=O)C1CC1 | -6.9%
O=C(Cn1cc2c(n1)CCCC2)Nc1ccccc1Cl | -13.9%
C=CCn1c(Cc2cccs2)nnc1SCC(=O)Nc1ccc(C(=O)OCC)cc1 | -10.5%
COc1cccc(C2C(C#N)=C(N)Oc3cc(C)[nH]c(=O)c32)c1OC (stereo unspecified) | -13.4%
C[C@]12C[C@@](C)(C=C1/C=C/c1ccccc1)C(=O)C[C@H]2c1ccccc1 | -3.7%
CCOc1ccc2nc(SCC(=O)Nc3ccc4c(c3)OCCO4)[nH]c2c1 | -9.6%

Continued.
compound | HPGD block
CCn1c(SCc2nc3cc(OC)c(OC)cc3c(=O)[nH]2)nnc1-c1ccncc1 | -14.2%
Cc1cc2oc(C(=O)Nc3ccc(S(=O)(=O)Nc4nccs4)cc3)cc(=O)c2cc1Cl | 31.6µM*
CCc1nnc(NC(=O)/C=C/c2ccc(C)o2)s1 | ?
CC(C)C(=O)Cc1ccc2ccccc2n1 | -3.3%
C=CCn1c(SCc2cc(C(=O)OC)c(C)o2)nnc1-c1ccncc1 | -12.1%
COCCNC(=O)CSc1ccc(C)cc1 | -23.2%
CCNC(=O)n1nccc1C(C)Oc1ccc(Cl)cc1 (stereo unspecified) | -4.9%
CCCNC(=O)Cc1ccsc1 | -11.9%
CCOc1cc(C(=O)Nc2ccc(S(=O)(=O)Nc3cc(C)on3)cc2)cc(OCC)c1OCC | -1.9%
CC1CCCC(C)N1C(=O)CSc1nc(N)c(-c2ccccc2)c(=O)[nH]1 (stereo unspecified) | -24.7%
COCCNC(=O)COc1ccc(OCCNC[C@@H](O)COc2ccccc2)cc1 | -13.1%
Cc1ccc(O)c(N=CC2=C(O)c3ccccc3C2=O)c1 | ?
Cc1ccc(/C(N)=N/OC(=O)/C=C/c2ccccc2)cc1 | -3.9%
O=[N+]([O-])c1c(NCCO)cc(Sc2nc3ccccc3s2)c2nonc12 | 11.2µM*

Not all compounds are listed. The share of hits here may be higher or lower than overall.
